Source: PubChem BioAssay
Choline anaer gr – inhibitors of anaerobic choline-dependent gram-negative bacterial growth. Gram-negative bacterium anaerobic choline minimal medium, absorbance growth; stronger effect = lower value; many inactives read as strong as hits in the columns shown. calls only. actives 0.2% (n = 55,000). AID 1963822;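 active = growth z-score on choline under -2 at 7 or 20 h with little or no fall on glycerol, limits in tiers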;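 also: stock transfer was 300 nL into about 50 µL; the organism is E. coli; final concentration not given here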
Choline anaer gr early – second read-out of Choline anaer gr, no call of its own (marks repeat the call); z-score; measured here: choline growth z-score, timepoint 1;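 score of optical density at 7 h as mean of two plates; lower means less growth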
Active calls of the source: *; i = inactive; & = joins results of further samples.

Choline anaer gr	Choline anaer gr early	Compound
i	1.82	Cc1csc(-c2csc(S(=O)(=O)N3CCN(c4ccc(Cl)cc4)CC3)c2)n1
i	-1.79	CCOc1ccc(NC(=O)C2CCCN2S(=O)(=O)c2ccc3c(c2)C(C)(C)C(=O)N3C)cc1 (stereo unspecified)
i	-0.19	Clc1ccc(OCc2nnc3sc(-c4cc5ccccc5[nH]4)nn23)cc1
i	-0.45	O=S(=O)(Nc1ccc2c(c1)OCCO2)c1ccc(-c2nnc(C3CC3)o2)o1
i	0.14	O=C(CCc1nc2ccccc2n(CC(=O)Nc2ccc3c(c2)OCCO3)c1=O)NCc1ccccc1
i	-0.1	O=S(=O)(c1ccccc1)N1CCN=C1N1CCN(c2ccc(F)cc2)CC1
i	-0.26	O=C(Nc1ccc(Oc2ccccc2)cc1)C1CCCN(S(=O)(=O)Cc2ccccc2)C1 (stereo unspecified)
i	0.3	Cc1cc2c(cc1S(=O)(=O)N(C)CC(=O)N(C(C)C)C1CCCCC1)OCC(=O)N2
i	-0.07	CC(C)c1ccc(Cn2c(CCCO)nc3ccccc32)cc1
i	0.21	Cc1ccccc1-c1cc2n(C)c(C)c(CCC(=O)N3CCN(C)CC3)c(=O)n2n1
i	-0.01	Cc1ccc(-c2nc(C)c(C(=O)N3CCC(CC(=O)NCc4cccnc4)CC3)s2)cc1
i	-1.21	COc1cccc(NS(=O)(=O)c2cc(N3C(=O)CCS3(=O)=O)ccc2OC)c1
i	-0.31	COC(=O)CSc1ncn(S(=O)(=O)c2ccc(C)cc2)n1
i	0.58	COc1ccc2cc3c(nc2c1)N(C(=O)c1ccc(Br)cc1)CC3
i	-0.58	CCN1CCCc2cc(C(=O)NC3CCCCC3)sc21
i	-0.85	CCCN(CCC)C(=O)CSc1nc2ncccc2[nH]1
i	0.52	Fc1ccc2c(c1)-c1c(cnc3cc(-c4ccccc4)nn13)CO2
i	-0.45	CC12CN3CC(C)(CN(C1)C3c1ccc(N)cc1)C2O (stereo unspecified)
i	0.34	Cc1cc(C)c(C(=O)N2CCCC(C(=O)N3CCOCC3)C2)[nH]1 (stereo unspecified)
i	-1.52	COCCNC(=O)Nc1c(-c2cccnc2)[nH]c2ccc(F)cc12
i	-2.1	O=C(NCc1ccc2c(c1)OCO2)C1CCN(c2ccc(Cl)cc2)C1=O (stereo unspecified)
i	0.16	Cn1c(=O)c2sccc2n2c(SCc3ccc(N4CCCC4=O)cc3)nnc12
i	0.71	Cc1cc(N2CCN(C)CC2)n2nc(CN3CCN(c4ccc(Cl)cc4)CC3)nc2n1
i	1.1	Cc1ccccc1N1C(=O)c2cccnc2C1=O
i	1.3	CCCc1cc(=O)[nH]c(-n2nc(C)cc2NC(=O)c2ccccc2Br)n1
i	0.95	CCn1cc2nc(SCc3cccc(F)c3)n(Cc3ccccc3F)c(=O)c2n1
i	1.13	CC(CCc1ccccc1)NC(=O)CCc1cn(-c2ccccc2)nc1-c1ccc2c(c1)OCO2 (stereo unspecified)
i	-0.61	CCOC(=O)c1[nH]c(C)c(CN(Cc2ccc(OC)cc2)C(=O)Nc2ccccc2OCC)c1C
i	0.03	Cc1cccc(NC(=O)c2c3c(nc4ccccc24)C(=O)N(C2CCCCC2)C3)n1
i	0.36	CCc1cc(Sc2ccc(NC(=O)C(C)(C)C)cc2)n2ncnc2n1
i	-0.8	CN(C)c1nc2ncn3c(=O)n(CC(=O)NC4CCc5ccccc54)nc3c2s1 (stereo unspecified)
i	-0.38	Cc1cc(Sc2ccc(NC(=O)Nc3ccccc3F)cc2)n2ncnc2n1
i	0.58	COc1ccc(CNC(=O)CCCn2ccc3cc(S(=O)(=O)N4CCCC4)ccc32)cc1
i	-0.15	O=C(NC1CCCCC1)C1CCCN(c2ncnc3c2oc2ccccc23)C1 (stereo unspecified)
i	-0.08	O=C(CSc1nc(=O)n(Cc2ccncc2)c2c1CCC2)NC1CCCC1
i	0.67	O=C(Nc1ccc2c(c1)OCCO2)N1CCC(n2cnc3ccc(Cl)cc3c2=O)CC1
i	1.02	O=C1CCC(=O)N1c1nc2n(n1)C(c1ccc(F)cc1)C=C(c1ccc(Cl)cc1)N2 (stereo unspecified)
i	-0.97	CCC(C)NC(=O)Cn1nc2n(CCC(=O)NC(C)C)c(=O)c3ccccc3n2c1=O (stereo unspecified)
i	-0.86	CCN(CC)S(=O)(=O)c1ccc2c(c1)N(CC(=O)NC(C)(C)C)C(=O)CCS2
i	-1.72	O=C(N/N=C/c1ccc([N+](=O)[O-])o1)c1ccc(O)cc1
i	-0.22	Cn1c(=O)c(=O)n(C)c2cc(S(=O)(=O)N3CCCC3c3ccccc3Cl)ccc21 (stereo unspecified)
i	-0.4	O=S(=O)(NCCc1n[nH]c(Cc2cccc(F)c2)n1)c1ccc(F)cc1F
i	0.36	CCN(CCCNC(=O)C1CCN(c2nc3cccnc3s2)CC1)Cc1ccccc1
i	1.53	COCCCNC(=O)c1cc(-c2ccc(OC)cc2)nc2n[nH]c(-c3ccc(OC)cc3)c12
i	-0.3	CCn1cnc(S(=O)(=O)N2CCC(C(=O)NC3CC3)CC2)c1
i	0.76	Cc1sc2ncc(C(=O)N(C)Cc3ccccc3)c(=O)n2c1C
i	-1.65	COc1cc(Cl)cc(CC2C(=O)Nc3ccccc32)c1OC (stereo unspecified)
i	0.91	CCCCCNC(=O)C1CCC(Cn2c(=O)c3sccc3n(CC(=O)N3CCCC3)c2=O)CC1 (stereo unspecified)
i	0.7	CCCN(C(C)=O)c1nc(-c2ccc(C)cc2)cs1
i	-0.49	O=S1(=O)C[C@H](N2CCCCC2)[C@@H](S(=O)(=O)c2ccc(F)cc2)C1
i	0.18	O=C(Nc1ccc(F)c(F)c1)c1cnn(-c2ccccc2)c1
i	-0.72	Cc1ccc(CSc2nnc([C@@H]3CCCN3)o2)cc1
i	0.03	Cc1nc(Nc2ncc(C(=O)Nc3c(C)cccc3Cl)s2)cc(N2CCN(CCO)CC2)n1
i	0.46	CCc1ccc(-c2nc(CS(=O)(=O)c3ccc(Cl)cc3)no2)cc1
i	0.55	CCn1nc(C)c(CCNC(=O)c2ccc(CN3C(=O)CCn4nccc43)cc2)c1C
i	-0.12	Cc1cc(Cl)ccc1NS(=O)(=O)c1ccc2c(c1)sc(=O)n2CCC(=O)N1CCCC1
i	-0.51	O=C(Nc1ccccc1F)N1CCC(n2cnc3cc(F)ccc3c2=O)CC1
i	-0.79	O=C(Nc1ccc2[nH]c(=O)oc2c1)c1ccccc1Cl
i	-1.68	CCS(=O)(=O)c1ccc(OCc2cc(=O)n3oc(C)cc3n2)c(NC(=O)C(C)C)c1
i	-1.16	CCOc1ccc2nc(N(Cc3cccnc3)C(=O)c3ccc4c(c3)OCCO4)sc2c1

Entries above with an aryl methoxy group:
Choline anaer gr	Choline anaer gr early	Compound
i	-1.21	COc1cccc(NS(=O)(=O)c2cc(N3C(=O)CCS3(=O)=O)ccc2OC)c1
i	0.58	COc1ccc2cc3c(nc2c1)N(C(=O)c1ccc(Br)cc1)CC3
i	-0.61	CCOC(=O)c1[nH]c(C)c(CN(Cc2ccc(OC)cc2)C(=O)Nc2ccccc2OCC)c1C
i	0.58	COc1ccc(CNC(=O)CCCn2ccc3cc(S(=O)(=O)N4CCCC4)ccc32)cc1
i	1.53	COCCCNC(=O)c1cc(-c2ccc(OC)cc2)nc2n[nH]c(-c3ccc(OC)cc3)c12
i	-1.65	COc1cc(Cl)cc(CC2C(=O)Nc3ccccc32)c1OC (stereo unspecified)

The list goes on:
Choline anaer gr	Choline anaer gr early	Compound
i	0.24	Cc1nc(CN2C(=O)COc3cc(S(=O)(=O)N4CCOCC4)c(Cl)cc32)no1
i	0.68	CCN(C(=O)CN1C(=O)C(C)CSc2ccc(S(=O)(=O)N3CCOCC3)cc21)c1ccccc1 (stereo unspecified)
i	0.79	Cc1cc(NC(=O)CCc2nc(-c3ccc(N4CCCC4)cc3)no2)ccc1Br
i	-0.64	CCOc1ccc(CCN2CNc3c(c(=O)n(C)c(=O)n3C)C2)cc1OCC
i	1.09	Cc1cccc(-c2cc(Nc3ccc(C(=O)NC(C)C)cc3)ncn2)c1
i	1.17	CN(C)c1ncnc2c1c(-c1ccccc1)cn2-c1ccccc1Cl
i	-1.03	Cc1ccc(C)c2sc(NC(=O)c3ccc(S(=O)(=O)N(C)CC4CCCO4)cc3)nc12 (stereo unspecified)
i	-0.62	CCn1c(=O)c2sccc2n2c(CCC(=O)NC3CCCCC3)nnc12
i	-0.32	CC1CS(=O)(=O)N(c2ccc(C(=O)N3CCCC3)cc2)C1=O (stereo unspecified)
i	-0.8	O=C(c1cnc2cc(-c3ccccc3)nn2c1)c1ccccc1O
i	0.75	O=C(Nc1ccc(-c2ccc3ccccc3n2)cc1)c1ccccc1F
i	0.02	Cc1[nH]c(C)c(S(=O)(=O)N2CCC(C(=O)Nc3ccc(F)c(Cl)c3)CC2)c1C(=O)N1CCCC1
i	0.4	Cc1nn(C)c(C)c1CCN(C)S(=O)(=O)c1c(C)noc1C
i	0.98&0.61&0.51	O=C(C1CCCCC1)N1CC(=O)N2CCc3ccccc3C2C1 (stereo unspecified)
i	-1.03	CCS(=O)(=O)N1CCOc2ccc(COCc3ccccc3Cl)cc2C1
i	-0.45	CCOC(=O)CC1(NC(=O)N2CCCC2c2c(C)noc2C)CCCCC1 (stereo unspecified)
i	-5.85	CCc1cccc(-n2nnnc2N2CCN(C(=O)Nc3ccc(C)cc3C)CC2)c1
i	-1	CCOCCSc1c(C)cnc2c1c(=O)n(C)c(=O)n2C
i	-0.74	Cc1cccc(C)c1Nc1c(-c2ccc(N(C)C)cc2)nc2cnc(Br)cn12
i	-0.55	CCc1nc(CN2C(=O)COc3ccc(S(=O)(=O)N4CCN(C)CC4)cc32)no1
i	-1.39	CCC(=O)N1CCc2cc(Br)c(S(=O)(=O)N3CCC(Cc4ccccc4)CC3)cc21
i	0.65	O=C(NCc1ccccc1Cl)c1cccc(Cn2c(=O)c3cccn3c3cccnc32)c1
i	-0.8	Cc1ccc(CN2CCCC2c2cc(C)on2)c(C)c1 (stereo unspecified)
i	0.96	O=C(Nc1ccc(C(=O)N2CCCC(C(=O)NC3CCCCC3)C2)cc1)c1ccc(Cl)cc1 (stereo unspecified)
i	-0.03	CCOc1cccc(C2CC(=O)Nc3c2cnn3-c2ccc3nnc(C)n3n2)c1 (stereo unspecified)
i	0.04	CC(=O)Nc1nc2ccc(CC(=O)NCCc3c[nH]c4ccc(Cl)cc34)cc2s1
i	0.33	COc1ccc(NC(=O)CCc2c(C)n(C)c3cc(-c4ccccc4OC)nn3c2=O)cc1
i	-0.22	CCC(C)NC(=O)CSc1nc(N2CCc3ccccc3C2)nc2ccccc12 (stereo unspecified)
i	0.49	CN(C)c1oc(-c2ccc(F)cc2)nc1S(=O)(=O)c1ccc(Cl)cc1
i	-0.93	O=C(CSCc1nnc(C(=O)Nc2cccc(F)c2)s1)NC1CCN(Cc2ccccc2)CC1

Complete entries from above. Screens in order: Choline anaer gr | Choline anaer gr early
`O=C(Nc1ccc(C(=O)N2CCCC(C(=O)NC3CCCCC3)C2)cc1)c1ccc(Cl)cc1` (stereo unspecified) in the list: i | 0.96
`O=C(c1cnc2cc(-c3ccccc3)nn2c1)c1ccccc1O` in the list: i | -0.8
`O=C(C1CCCCC1)N1CC(=O)N2CCc3ccccc3C2C1` (stereo unspecified) in the list: i | 0.98&0.61&0.51

In another format: results already given.
| mol | Choline anaer gr | Choline anaer gr early |
| --- | --- | --- |
| CCn1c(=O)c2sccc2n2c(CCC(=O)NC3CCCCC3)nnc12 | i | -0.62 |
| CC1CS(=O)(=O)N(c2ccc(C(=O)N3CCCC3)cc2)C1=O (stereo unspecified) | i | -0.32 |

Continued:
Choline anaer gr	Choline anaer gr early	Compound
i	0.67	CCCc1cc(Nc2ccc(N3CCOCC3)cc2)n2nc(-c3ccco3)nc2n1
i	-1.04	Cc1nn(-c2ccc(N3CCCCC3)nn2)c(C)c1CCC(=O)NCCc1c[nH]c2ccccc12
i	-0.21	Cc1ccc(S(=O)(=O)N2CCCC2c2cc(C)no2)cc1 (stereo unspecified)
i	-0.26	Cn1cnc2c(-c3ccc(Cl)cc3)csc2c1=O
i	-0.15	COc1cccc(N2CCN(C(=O)CN3C(=O)CCn4nc(-c5cn(C)c6ccccc56)cc43)CC2)c1
i	0.33	Cc1ccc(N2CC(c3nc(Cn4cnc(S(=O)(=O)N5CCCCC5)c4)no3)CC2=O)cc1C (stereo unspecified)
i	1.83	Cc1ccc2c(c1)C=C(C(=O)NCc1ccccc1Cl)C=CO2
i	-1.04	CCc1ccc(NS(=O)(=O)c2c(C)nc3sc(CC)nn3c2=O)cc1
i	-0.28	CN(Cc1ccccc1)C(=O)C1CCN(c2ccc(-c3ccc(F)cc3)nn2)CC1
i	-0.82	CCOc1ccc(C2Nn3c(CC)nnc3SC2C(=O)Nc2cc(C)ccc2C)cc1 (stereo unspecified)
i	0.27	CCOC(=O)c1cc(S(=O)(=O)N2CCCC2C(=O)Nc2nc3ccc(OC)cc3s2)cn1C (stereo unspecified)
i	-0.1	C=CCn1cnc2c(cnn2-c2ccc(F)cc2)c1=O
i	0.23	CN1CCN(c2ccc(CNC(=O)Cn3ccc4c(SCc5ccccc5)nccc43)cc2)CC1
i	0.99	COCCCNC(=O)C(C)C1Sc2ccccc2N(Cc2ccccc2F)C1=O (stereo unspecified)
i	-3	CCOC(=O)c1cc2sccc2[nH]1
i	-1.01	O=C(NC1CCCCC1)C1CCCN(C(=O)c2cc(-c3ccccn3)n[nH]2)C1 (stereo unspecified)
i	0.04	Cc1nc(-c2ccc(F)cc2)sc1-c1ccc(SCCN2CCOCC2)nn1
i	-0.12	NC(=O)NC1NC(=O)NC1=O (stereo unspecified)
i	0.38	CCOc1ccc(NC(=O)C2CCN(S(=O)(=O)c3cc(-c4noc(C)n4)sc3C)CC2)cc1

An excerpt. The share of hits here may be higher or lower than overall.
